# AID504770 – E. coli YBA685 growth inhibition, screen for V. cholerae RctB inhibitors. z-score (no concentration beside the values). 130,000 compounds, 0.27% hits. E. coli YBA685 rctB-dependent plasmid, OD600 growth, 3 h; stronger effect = lower value;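 active means z-score under -2 on both plates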;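 further: wells of about 30 µL received 100 nL stock; score is relative to mean and SD of the test wells; the first replicate is given; strong numbers were not always called active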
# Ba CapD inh – inhibitors of Bacillus anthracis CapD enzyme | purified CapD enzyme, fluorescence intensity read-out; stronger effect = lower value; some hits fall short of the stated cut | z-score (concentration not given with the values) | 140,000 compounds, 0.23% hits | AID 492967;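 active means z-score under -4 in either of two replicates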;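 further: stock transfer was 100 nL into about 40 µL; score is relative to mean and spread of the plate; one replicate is shown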
# Starred values were filed as active, the others as inactive; nt = not tested or not shown; & = joins results of further samples. These rows are one share of the data; the hit share may differ from the screen's.
mol | AID504770 | Ba CapD inh
O=C(CCc1ccccc1)NCCOc1ccccc1 | 1 | -1
COc1ccc(C2=NC(c3ccccc3OC)NC(c3ccccc3O)C2)cc1 (configuration not stated) | 1.4 | 1.1
CN1CCN(CCCNC(=O)C2CCN(S(=O)(=O)N3CCC4(CC3)OCCO4)CC2)CC1 | 0 | 0.05
CCc1cc(S(=O)(=O)n2ccnc2)ccc1OC | -0.75 | nt
O=C(CCn1cccc1)NCCCc1ccccc1 | 0.2 | -1.2
Cc1ccc(-n2ncc3c(=O)n(CC(N)=O)cnc32)cc1 | -0.2 | nt
COc1cc(OC)c(OC)cc1CNCc1ccco1 | 1.8 | nt
CCOC(=O)N1CCC(N2CC34C=CC(O3)C(C(=O)Nc3ccc(OCC)cc3)C4C2=O)CC1 (configuration not stated) | 0.7 | -0.13
Cc1ccc2[nH]c(CNC(=O)c3ccncc3)cc2c1 | -0.25 | nt
Fc1ccc2nc3c(nc2c1)c1cc(F)ccc1n3Cc1ccc(Cl)cc1 | nt | 1.8
O=C(CSc1nc2ccccc2[nH]1)Nc1cc(C(F)(F)F)cc(C(F)(F)F)c1 | nt | -0.14
COc1ccc(S(=O)(=O)Nc2cccc3cc(C(=O)N4CCN(C)CC4)[nH]c23)cc1 | nt | -0.24
CCC(=O)N1CCN(c2ccc(OC)cc2)CC1 | -0.9 | 0.47
N#C/C(=N\Nc1cc(C(=O)O)cc(C(=O)O)c1)C(=O)c1ccccc1 | 0.35 | nt
CC1SC(=S)N(CCCC(=O)O)C1=O (configuration not stated) | 0.05 | nt
CC(=O)n1cc(C2C(=O)CC(C)(C)CC2=O)c2ccccc21 | -0.5 | nt
CN(c1ccc(Br)cc1)S(=O)(=O)c1ccc2[nH]cc(C(=O)N3CCN(c4ccccc4)CC3)c(=O)c2c1 | nt | 0.36
Cc1ccc(-c2noc(CNC(=O)C3CCCCC3)n2)cc1 | 0.5 | -0.15
O=[N+]([O-])c1ccc(O)c([N+](=O)[O-])c1 | -0.3 | nt
CC1CN(c2ncc(C(=O)OCc3ccc(Cl)cc3)c(C(F)(F)F)n2)CC(C)O1 (configuration not stated) | 1.6 | -0.18
CCCCC(=O)N1c2ccccc2N2C(c3c(C)cc(C)cc3C)=NON12 | -0.55 | nt
Nc1cccc(NC(=O)CCC(=O)NCc2ccco2)c1 | -2.2 | nt
CC(C)(O)C#Cc1ccc(COC(=O)N2CCC(n3c(=O)[nH]c4ccccc43)CC2)cc1 | nt | 0.68
CCc1cc(C(=O)O)c(NC(=O)c2ccccc2)s1 | -0.5 | nt
CC1Cc2ccccc2N1C(=O)COC(=O)c1cc2ccccc2oc1=O (configuration not stated) | -0.4 | nt
CC1CN(C)C(C)CC1OC(=O)c1ccccc1 (configuration not stated) | -0.7 | nt
CC1CC(=O)NN=C1c1ccc(Cl)cc1 (configuration not stated) | -0.1 | -0.01
CC(=O)Oc1cccc(/C=N/NC(=O)COc2ccccc2Cl)c1 | nt | -0.54
COc1ccc(CCNC(=O)CSc2nc3[nH]ncc3c(=O)n2-c2ccc(C)c(Cl)c2)cc1OC | nt | -0.31
COC(=O)CSc1cc(C)c(Cl)cc1C | 0.2 | -0.34
COc1ccc(/C(N)=N/OCc2c(Cl)cccc2Cl)cc1 | nt | -0.1
CC(OC(=O)c1ccc2c(c1)NC(=O)C1CCCN21)C(=O)Nc1cccc(C#N)c1 (configuration not stated) | -0.35 | nt
O=C(OCCCn1c(=O)[nH]c2ccccc21)c1ccccc1SCC(=O)N1CCCC1 | 0.4 | nt
COC(=O)Cn1c(=O)c2cccn2c2ccccc21 | -0.7 | 50
Nc1c(Sc2ccccc2)c(Sc2ccccc2)c(N)c2c1C(=O)c1ccccc1C2=O | nt | 0.065
CCOC(=O)c1cnc2c(ccc3ccccc32)c1NCCOC(=O)C(C)(C)C | -0.05 | -0.42
Nc1ccc2nc(SCC(=O)c3ccc(Br)cc3)sc2c1 | nt | -0.34
COCc1cc(=O)[nH]c2c1c(-c1ccccc1)nn2C | 0.6 | 1.1
COc1ccc(OC2C(=O)N(c3cccc(C(F)(F)F)c3)C2c2ccc(OC)c(OC)c2)cc1 (configuration not stated) | 0.8 | 0.29
CC(C)OP(=S)(OC(C)C)OC(C)C | -0.7 | 0.14
O=C(c1ccccc1)N1N=C(c2ccccc2)CC1c1ccccc1[N+](=O)[O-] (configuration not stated) | nt | -0.34
Cc1ccc(S(=O)(=O)CC(C)N2CCOCC2)c(S(=O)(=O)CC(C)N2CCOCC2)c1 (configuration not stated) | 0.4 | 78
COC(=O)c1ccc2c(c1)NC(=O)C(C)N2 (configuration not stated) | -0.85 | 47
CC(C)(Oc1ccc(Cl)cc1)C(=O)O | 0.65 | 5&0.15
COCCn1c(SCC(=O)NC23CC4CC(CC(C4)C2)C3)nnc1-c1ccncc1 | 1.2 | nt
COCc1cc(C)nc(SCC(=O)Nc2ccccc2OC)c1C#N | nt | 0.24
c1cnc(N2CCN(Cc3c[nH]c4ccccc34)CC2)nc1 | -1.2 | -0.52
O=C(Nc1ccc(NC(=O)C2CC2)nc1)c1cccc(F)c1 | -0.35 | nt
CC1=C(C(=O)OCCC(C)C)C(c2ccc(OCc3ccccc3)cc2)NC(=O)N1C (configuration not stated) | nt | -0.17
COc1ccc(N2CCN(c3ncnc4sc(C(=O)NCc5ccc(Cl)cc5)c(C)c34)CC2)cc1 | nt | 0.32
CC1(C)C2CC[C@](C)(C2)C1NC(=O)c1c(Cl)cccc1Cl (some centres not stated) | nt | -0.38
COC(=O)C1=C(C)N(C)C(=O)/C1=C\c1cc(C)n(-c2ccc(C)cc2)c1C | -0.45 | -0.79
COCc1cc(=O)oc2cc(NC(=O)c3ccc(C(C)(C)C)cc3)ccc12 | -1.4 | 6.9
O=C1CCC(C(=O)Nc2ccccc2)=NN1 | 0.5 | nt
N#CC1=C(O)Cn2c1nc1ccc(Br)cc1c2=O | -1.4 | nt
Cc1ccc(NC(=O)Cn2c(Cc3ccccc3)nc3sc4c(c3c2=O)CCCC4)c(Br)c1 | nt | 0.1
O=C(NCc1ccncc1)c1cccs1 | -0.9 | 0.67
CCOC(=O)c1ccc2nsnc2c1 | -0.05 | nt
Cc1cn(C2CC3OCC3O2)c(=O)[nH]c1=O (configuration not stated) | -0.6 | -0.27
Cc1csc(C(=O)NNC(=O)OCC2(c3ccc(Cl)cc3)CC2)c1-n1cccc1 | nt | -0.84

# Compound profiles, from the list above. Screens in order: AID504770	Ba CapD inh
# `COCc1cc(=O)oc2cc(NC(=O)c3ccc(C(C)(C)C)cc3)ccc12` is listed with -1.4	6.9
# `COCCn1c(SCC(=O)NC23CC4CC(CC(C4)C2)C3)nnc1-c1ccncc1` is listed with 1.2	nt
# `COCc1cc(C)nc(SCC(=O)Nc2ccccc2OC)c1C#N` is listed with nt	0.24
# `CC(C)OP(=S)(OC(C)C)OC(C)C` is listed with -0.7	0.14
# `Cc1cn(C2CC3OCC3O2)c(=O)[nH]c1=O` (configuration not stated) is listed with -0.6	-0.27

# Later entries:
mol | AID504770 | Ba CapD inh
CCN1CCN(C(=O)c2ccc(/C=C3/Sc4ccccc4N(Cc4ccccc4C)C3=O)cc2)CC1 | 0.25 | 1.7
CCC(=O)c1ccc(OCC(=O)OC(C)C(=O)Nc2ccc3c(c2)OCO3)cc1 (configuration not stated) | -0.75 | nt
Cn1c(O)c(/C=N/N2CCOCC2)c2ccccc21 | -1.6 | -0.8
Cc1occc1-c1nnc(SCCCC(=O)N2CCOCC2)n1-c1ccccc1 | -0.2 | nt
CSc1nsc(SC)c1NC(=O)Nc1ccccn1 | 0 | 0.55
O=C(c1snc2ccc(Cl)cc12)N1CCc2ccccc2C1 | -0.55 | -0.055
COc1ccc(OC)c(NC(=O)CN(c2ccc(OC)c(OC)c2)S(=O)(=O)c2ccc(C)cc2)c1 | nt | -1.6
O=c1oc2ccc3ccccc3c2cc1-c1nc(-c2ccccc2F)no1 | 2.5 | 6
O=C(Nc1c(F)cc(F)cc1F)c1cccn(Cc2ccccc2)c1=O | nt | 6.9
CCOC(=O)N1CCN(CCC(=O)c2ccc(OC)cc2)CC1 | -0.2 | -3
CC(=O)c1c(C)oc2ccc(N(C(=O)c3ccccc3)S(=O)(=O)c3ccc(C(C)(C)C)cc3)cc12 | nt | 0.02
Cc1c(-c2ccccc2)nnn1-c1ccc(F)cc1F | -0.45 | -0.43
O=C(Nc1ccc(S(=O)(=O)N2CCCCC2c2cccnc2)cc1)c1ccc(Br)o1 (configuration not stated) | -0.05 | nt
Cc1ccc(NC(=O)COC(=O)C2CCN(C(=O)OC(C)(C)C)CC2)cc1C | 0.3 | nt
COc1ccc(OCC(O)CNC(=S)Nc2ccc3c(c2)OCCO3)cc1 (configuration not stated) | -0.8 | -0.18
N#Cc1ccc(COC(=O)CSc2nnc(C3CCCCC3)n2N)cc1 | -0.35 | nt
CC(NCc1ccccc1)C1CC1 (configuration not stated) | -0.05 | 0.45&0.96
Fc1cccc(Cl)c1C=NCc1c(F)cccc1Cl | nt | -0.32
O=C(O)c1cc2c(s1)CCCC2 | 0.65 | 0.095
Cc1ccc(N2C(=O)NC(=O)/C(=C\c3ccc(-c4ccccc4C(=O)O)o3)C2=O)cc1 | nt | 1.9
COc1ccc(C(OCC2OC(n3ccc(=O)[nH]c3=O)C(O)C2O[Si](C)(C)C(C)(C)C)(c2ccccc2)c2ccc(OC)cc2)cc1 (configuration not stated) | nt | 6
Cc1csc(N(C(=O)c2ccccc2)c2ccccc2)n1 | -0.75 | nt
Brc1ccc(NCc2c[nH]c3ccccc23)cc1 | 0.8 | -2.6
O=C(COC(=O)c1ccc(CS(=O)(=O)c2ccccc2)o1)c1ccc[nH]1 | 0.45 | nt
COc1ccc2c(COC(=O)c3ccccc3NCCO)cc(=O)oc2c1 | 0.05 | nt
O=C(CCc1ccco1)N1CCCC(c2nc3ccccc3s2)C1 (configuration not stated) | 0.2 | nt
CCOc1ccc(-n2cc(-c3ccccc3)c3c(NCCCN4CCOCC4)ncnc32)cc1 | nt | 1.4
COCc1[nH]nc2c1C1(C(=O)Nc3ccccc31)C(C#N)=C(N)O2 (configuration not stated) | 0.45 | 0.8
COc1cc(C(=O)NCc2nnc(SCC(=O)N3CCc4ccccc43)o2)cc(OC)c1OC | -0.6 | 0.3
O=C1c2cc(S(=O)(=O)O)ccc2-c2ccc(S(=O)(=O)O)cc21 | nt | 0.52
COc1ccccc1C1CCN(C(=O)c2ccccc2)CC1 | nt | 0.42
CC1CCN(C(=O)COc2ccc3c4c(c(=O)oc3c2)CCCCC4)CC1 | 0.7 | 83
Cc1nc(-c2cc(C#N)c(SCCNS(=O)(=O)c3cccc(C(F)(F)F)c3)nc2C)cs1 | nt | 2
c1ccc2c(c1)CCc1c-2nc2ccccc2c1N1CCOCC1 | -0.2 | 1.8
Cc1ccc(C(=O)NC(=O)OC[C@@H]2CCCN3CCCCC23)cc1 (some centres not stated) | -0.65 | 0.16
O=C(CCN1CCCCC1)N/N=C/c1cccnc1 | -1.1 | 0.13
COC1c2c(c(-c3ccccc3)nn2-c2ccccc2)-c2nc3ccccc3n21 (configuration not stated) | -0.15 | nt
CC(=O)N1CCN(c2nc(C)nc3sc(-c4ccccc4)cc23)CC1 | 2.7 | nt
OCCCCn1cnc2cc(Cl)c(Cl)cc21 | 2.2 | -1.2
O=C(O)CCc1nc2ccccc2s1 | -0.4 | -0.46
NC(=O)C1CCN(C(=O)NC2CCCCC2)CC1 | 0 | -0.28
COC(=O)C1CCN(c2cc(=O)n(-c3ccc(OC)cc3)c(=O)[nH]2)CC1 | -0.6 | -0.93
COc1cc(OC)cc(C(=O)Oc2ccc(Cl)cc2NC2=NS(=O)(=O)c3ccccc32)c1 | nt | 0.93
O=c1[nH]c2sc3c(c2c2nncn12)CCCC3 | -1.1 | 7
CC1CC(C)CN(C(=O)COC(=O)c2ccccc2NS(=O)(=O)c2ccc3c(c2)OCCO3)C1 (configuration not stated) | 0.1 | nt
CC(=O)Nc1ccc(NC(=O)CCCc2c[nH]c3ccccc23)cc1 | -0.25 | 1.2
CCc1ccc(NC(=O)C(C)OC(=O)c2c(F)cccc2F)cc1 (configuration not stated) | 0.9 | -0.28
CCOC(=O)c1c(C)nn(-c2ncccc2N)c1C | nt | 1.6
O=[N+]([O-])c1cc(C(F)(F)F)ccc1NCC1CC1 | nt | 0.15
COc1ccc(C2C(C#N)=C(N)OC3=C2C(=O)CC(c2ccccc2Cl)C3)cc1 (configuration not stated) | nt | 0.04
C=CCN1C(=O)CCNc2ccccc21 | -0.3 | 0.7
CCOC(=O)c1nnn(-c2nonc2N)c1CN1CCN(c2ccccn2)CC1 | nt | 1.3
COc1cc2ncnc(NCC(O)c3ccc4ccccc4c3)c2cc1OC (configuration not stated) | nt | 1
Nn1c(SCC(=O)c2ccc(Cl)cc2)nc2ccccc2c1=O | 1.6 | nt
O=S(=O)(c1ccc(Cl)cc1)N1CCN(c2ccccc2O)CC1 | nt | -0.5
CCCc1nc2cc3sc(CCC)nc3cc2s1 | -0.35 | -0.06
N=c1oc2ccccc2oc1=N | -1 | nt
Cc1ccc(CNC(=O)c2oc3ccccc3c2-n2cccc2)cc1 | -1.1 | 0.19
CCCS(=O)(=O)c1ccc(NC(=O)Nc2ccc(Cl)cc2Cl)cc1 | -0.45 | 0.18
CN1C(=O)/C(=C\c2ccc(Cl)cc2)SC1=S | -0.1 | -0.06
COC(=O)c1c(C(=O)OC)c(-c2ccc(C(F)(F)F)cc2)n2c1CSC2 | nt | -0.17
Cc1ccc(C(=O)CC(SC2CCCCC2)C(=O)O)cc1 (configuration not stated) | -0.25 | 0.3
CC(C)c1ccc(S(=O)(=O)Nc2cc3c4c(oc3c3ccccc23)CCCC4)cc1 | -0.55 | 3.1
